CapD inh: Bacillus anthracis CapD inhibitors, primary screen, biochemical, fluorescence intensity; 140,000 compounds, 0.23% hits; purified CapD enzyme, fluorescence intensity read-out; stronger effect = lower value; some hits fall short of the stated cut; z-score (no concentration beside the values);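 active = z-score under -4 in either of two replicates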;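 note: stock transfer was 100 nL into about 40 µL; score is relative to mean and spread of the plate; one replicate is shown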
AID504770: growth inhibition of E. coli YBA685, primary screen, V. cholerae RctB inhibitors; E. coli YBA685 rctB-dependent plasmid, OD600 growth, 3 h; stronger effect = lower value; 130,000 compounds, 0.27% hits; z-score (concentration not given with the values);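 active = z-score under -2 on both plates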;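 note: wells of about 30 µL received 100 nL stock; score is relative to mean and SD of the test wells; the first replicate is given; strong numbers were not always called active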
Numbers without * were called inactive; . = no result given.

SMILES	CapD inh	AID504770
O=C(Nc1ccccc1C(=O)NC1CC1)c1ccco1	0.28	0
O=C(N/C=C/n1cnc2ccccc21)c1ccc(Cl)cc1	.	0.3
N#C/C(=C(/O)COc1ccccc1)c1nc2ccccc2s1	.	0
O=C(OCCc1ccc(Cl)cc1)N1CCC(O)C1 (stereo not given)	0.04	.
CCOCCOC(=O)C1=C(C)NC2=C(C(=O)CC(c3cccs3)C2)C1c1cccc(Cl)c1Cl (stereo not given)	22	.
CNC(=O)NC(=O)C(Sc1nnnn1-c1cc(C)ccc1C)c1ccccc1 (stereo not given)	.	-0.6
CN(C)/C=C(\C#N)C(=O)Nc1cc(C(F)(F)F)ccc1Cl	0.34	0.45
O=C(CSc1ncn[nH]1)NCCCc1ccccc1	.	1
COc1cccc(CNCCO)c1OCc1ccccc1F	-1.4	1.2
COc1ccc(CCNC(=O)CSc2ccccc2Cl)cc1	0.18	0.85
CN(C)c1nc(N(C)C)nc(N2CC(=O)N(c3ccc(Cl)c(Cl)c3)C2=N)n1	0.14	.
COc1ccc(-c2cc(C(F)(F)F)n3ncc(C(=O)NCCCN4CCOCC4)c3n2)cc1OC	0.77	.
O=C(c1ccccc1)c1ccc(CBr)cc1	0.79	-0.25
CC(C)CNC(=O)Cn1c(=O)cnc2ccccc21	.	-0.15
CC(C)(C)c1ccc(CNCc2ccco2)cc1	-0.26	0.35
COC(=O)CN(c1nc(C)cc(OC)n1)S(=O)(=O)c1ccc(C)cc1	-0.08	.
S=C(Nc1ccccc1)N1CCCCC1c1cccnc1 (stereo not given)	0.42	0.55
CC(C)N(CCOC(=O)C1(c2ccccc2)CCOc2ccccc21)C(C)C (stereo not given)	0.45	.
CCN1C(=O)/C(=C2\SC(=S)NC2=O)c2cc(Br)ccc21	0.61	0.4
CNC(=O)c1ccccc1S(=O)c1cccc2cccc(C(=O)OC)c12 (stereo not given)	-0.6	-0.25
CSc1ncccc1C(=O)Nc1ccc(F)cc1	0.65	0.8
Cc1ccccc1CNCC1CCC(C(=O)O)CC1 (stereo not given)	-0.38	1.1
O=C(c1ccc(OC(F)(F)F)cc1)c1ncc[nH]1	-0.45	1.4
Nc1nc(=O)n(CC(O)C(=O)O)cc1Br (stereo not given)	0.66	-0.75
O=C(Nc1cccc(C(F)(F)F)c1)OC1CN2CCC1CC2 (stereo not given)	-0.12	0.1

Next section; the last seven above are carried over.
SMILES	CapD inh	AID504770
CCN1C(=O)/C(=C2\SC(=S)NC2=O)c2cc(Br)ccc21	0.61	0.4
CNC(=O)c1ccccc1S(=O)c1cccc2cccc(C(=O)OC)c12 (stereo not given)	-0.6	-0.25
CSc1ncccc1C(=O)Nc1ccc(F)cc1	0.65	0.8
Cc1ccccc1CNCC1CCC(C(=O)O)CC1 (stereo not given)	-0.38	1.1
O=C(c1ccc(OC(F)(F)F)cc1)c1ncc[nH]1	-0.45	1.4
Nc1nc(=O)n(CC(O)C(=O)O)cc1Br (stereo not given)	0.66	-0.75
O=C(Nc1cccc(C(F)(F)F)c1)OC1CN2CCC1CC2 (stereo not given)	-0.12	0.1
O=[N+]([O-])c1ccc(CN2CCN(c3nc4ccccc4s3)CC2)cc1	-0.06	.
Cc1cccc2c1nc1s/c(=C/c3cn[nH]c3-c3ccccc3)c(=O)n12	-0.89	-1.2
CC1CCCCN1C(=O)c1ccc(F)cc1F (stereo not given)	0.12	-0.45
O=C(Nc1ccccc1N1CCCCC1)C1CC(=O)N(Cc2ccccc2)C1 (stereo not given)	-0.53	2.6
O=C(NCCN1CCOCC1)c1nc(-c2ccc(Cl)cc2)n2c1CCCCC2	-1.6	-2.6*
O=S(=O)(c1ccc(-n2cnnn2)cc1)N1CC=C(c2ccc(F)cc2)CC1	0.17	-0.7
Cn1cccc1/C=N/NC(=O)c1sc2cc(Cl)ccc2c1Cl	0.22	-0.5
CCC(=O)N(c1nnc(SCC(=O)c2ccc[nH]2)s1)C1CC1	.	0.4
CCOC(=O)C1CCCN(C(=O)c2cc(-c3ccc(F)cc3)nc3ccccc23)C1 (stereo not given)	0.75	0.05
Nc1c(C(=O)Nc2ccc(F)cc2)sc2nc3c(c(-c4ccco4)c12)CCCCC3	-0.025	.
CNc1csc(C)c(C)c1=O	-0.2	-0.25
O=C(CSc1nnc(COc2cccc3ccccc23)n1CC1CCCO1)NC1CC1 (stereo not given)	.	-1.2
COC(=O)Nc1nc(-c2cccc(Br)c2)cs1	0.14	0.35
CCc1cccc(NC(=O)Cc2noc3ccccc23)c1	-2.6	2.2
CCOC(=O)c1cncc(C#CCO)c1	-0.095	.
COc1ccc(/C=C2\CC/C(=C\c3ccc(OC)c(Cn4cccn4)c3)C2=O)cc1Cn1cccn1	-0.01	-0.5
Cc1ccc(N2C(=O)C3C4c5ccccc5C(CO)(c5ccccc54)C3C2=O)c(C)c1 (stereo not given)	0	.
COCCNC(=S)N1CCC(C(=O)c2ccc(F)cc2)CC1	.	0.25
CC(C)NC(=O)CN	.	-0.2
C=CCn1c(SCC(C)C)nc2sc3c(c2c1=O)CC(C)(C)OC3	0.36	-0.6
O=C1Nc2ccc(Cl)cc2C(c2ccccc2Cl)=NC1O (stereo not given)	1.9	.
CC(C)(C)SCc1cccc(C(=O)N2CCN(c3ncccc3C(F)(F)F)CC2)c1	0.48	1.6
COc1ccc(OCC(=O)NCc2ccco2)cc1	-0.36	1.4
N=c1nc(SCCC(=O)O)ss1	.	-1.1
O=C(NNC(=O)C1c2ccccc2Oc2ccccc21)OCc1cc2c(cc1[N+](=O)[O-])OCO2	-0.41	.

Compound profiles, as listed above.
O=C(Nc1ccccc1N1CCCCC1)C1CC(=O)N(Cc2ccccc2)C1 (stereo not given) as listed: CapD inh: -0.53; AID504770: 2.6
CC1CCCCN1C(=O)c1ccc(F)cc1F (stereo not given) as listed: CapD inh: 0.12; AID504770: -0.45

Continuation:
SMILES	CapD inh	AID504770
COC(=O)c1nnn(-c2nonc2N)c1CN1CCCCCC1	0.39	.
CC1(C)Cc2c(sc(N3CCCC3=O)c2C#N)C(C)(C)N1	.	-2.1
O=C(O)CCc1ccsc1	.	1.6
COc1cc(/C=C/C(=O)C(C#N)c2nc3ccccc3n2C)cc(OC)c1OC (stereo not given)	.	-0.3
CCc1ccc(C2C(C#N)=C(N)Oc3cc(C)oc(=O)c32)cc1 (stereo not given)	0.23	-0.35
CSc1n[nH]c(NC(=O)c2ccc(C(C)(C)C)cc2)c1-c1ccccn1	-0.1	-0.15
CCN(C(=O)c1c(-c2ccccc2Cl)noc1C)C(Cc1ccccc1)c1ccc(OC)cc1 (stereo not given)	-0.06	1.2
COc1cc(OC)cc(C(=O)N2CCN(C)CC2)c1	-0.22	1.2
Oc1c(N=Nc2ccc(Cl)cc2Cl)c2ccccc2n1-c1ccccc1	-0.2	.
CC(C)(C)OC(=O)N(CCOC(=O)N1CCCC1C(=O)OCc1ccc([N+](=O)[O-])cc1)Cc1cc2ccccc2c2ccccc12 (stereo not given)	0.075	.
CCCOc1ccc(C2C3=C(CCCC3=O)OC3=C2C(=O)CCC3)cc1	-0.59	-0.45
CSc1scc2c1C(=O)/C(=C/N(C)C)CC2	-1.2	0.25
CCCNC(=O)c1csc2c1CCCCC2	-0.43	-0.2
Cc1occc1C(=O)N/N=C/c1sc(N2CCOCC2)nc1-c1ccccc1	.	0.65
CCCN1CCC(N(c2ccc3[nH]c(C(C)(C)CC)cc3c2)S(=O)(=O)c2ccc(OC)cc2)CC1	-0.59	.
Cc1c(C(=O)Nc2ccc(F)c(Cl)c2)sc2ncn(CC(=O)Nc3cccc(C(F)(F)F)c3)c(=O)c12	0.93	.
O=C1CCN(C(=O)CCc2nc3ccccc3s2)CC1	.	1.5
Cc1ccn(S(=O)(=O)CC23CCC(CC2=O)C3(C)C)n1 (stereo not given)	.	0
Cc1ccc(NC(=O)CC(NCCc2ccccc2)C(=O)O)cc1 (stereo not given)	1.1	-0.5
CCOC(=O)N1CCC2(CC1)C(C(=O)C13CC4CC(CC(C4)C1)C3)C2(C#N)C#N (stereo not given)	.	-0.75
O=C1C2C3C=CC(C2C(=O)N1c1ccc(F)cc1)C1C(=O)N(c2ccc(F)cc2)C(=O)C31 (stereo not given)	0.18	.
CCC(CC)NC(=O)Nc1ccccc1C(F)(F)F	0.52	-0.45
O=C(O)Cn1ncc2ccccc2c1=O	.	1.9
Cc1cc(N2CCCCC2)nc2ccc(N3C(=O)CCC3=O)cc12	58	-0.1
O=C(O)CCc1ccc(-c2ccc(F)cc2)n1CC1CCCO1 (stereo not given)	5.7	0.45

A draw from above in order of number of heavy atoms, low to high:
SMILES	CapD inh	AID504770
CC(C)NC(=O)CN	.	-0.2
CCOC(=O)c1cncc(C#CCO)c1	-0.095	.
O=C(N/C=C/n1cnc2ccccc21)c1ccc(Cl)cc1	.	0.3
Cc1ccc(NC(=O)CC(NCCc2ccccc2)C(=O)O)cc1 (stereo not given)	1.1	-0.5
CCOC(=O)C1CCCN(C(=O)c2cc(-c3ccc(F)cc3)nc3ccccc23)C1 (stereo not given)	0.75	0.05
Cc1ccc(N2C(=O)C3C4c5ccccc5C(CO)(c5ccccc54)C3C2=O)c(C)c1 (stereo not given)	0	.

The list continues:
SMILES	CapD inh	AID504770
C/C(C(=O)c1ccc(Cl)cc1)=[N+](/[O-])C1CCC/C1=N\O (stereo not given)	-0.95	-0.6
O=C(O)CSCC(=O)Nc1ccc2c(c1)OCCCO2	0.65	1.1
CC1CCc2cc(F)ccc2N1C(=O)CN1C(=O)c2ccccc2S1(=O)=O (stereo not given)	.	1.5
O=c1c(Br)c(N2CCOCC2)cnn1-c1ccccc1	0.1	0.3
O=C(COc1ccc(C(=O)c2ccc(F)cc2)cc1)NC1CCCC1	0.46	0.15
CCN(CC)C(=O)Nc1c(-c2c(Cl)cccc2Cl)noc1C	-0.28	-0.1
c1ccc(OCCNCCOc2ccccc2)cc1	.	-0.45
CSc1c(C#N)c(N)[nH]c(=S)c1C#N	0.025	.
O=C1CN(Cc2cc(=O)oc3cc4c(cc23)CCC4)CCN1	.	-0.2
Cc1cc(NS(=O)(=O)c2ccc(NC(=O)NC(C)(C(F)(F)F)C(F)(F)F)cc2)no1	0.17	-1.1
O=C(CSc1ccccc1C(=O)O)NC12CC3CC(CC(C3)C1)C2	0.045	0.25
COc1ccccc1-c1c(C)nn2c(SCC(=O)N3CCOCC3)cc(C)nc12	-1	0.1
COC(=O)C1=C(Nc2cc(Cl)cc(Cl)c2)CSC1	0.055	0.05
Cc1cc(C(=O)N(Cc2ccccc2)c2ccccc2)no1	-0.22	-0.75
O=C1CCN(NC(=O)c2cccnc2)C(=O)N1	.	0
Cc1[nH]c(=O)n(C(C)(C)C)c(=O)c1Cl	0.06	-0.65
CCc1c(O)nc2n(c1=O)CCS2	0.66	0.85
CC1CCC(N(C)c2nc(C(F)(F)F)nc3ccccc23)CC1 (stereo not given)	.	0.35
Cc1cc(C)nc(OC(Cc2ccc3ccccc3n2)c2ccccc2)n1 (stereo not given)	0.06	.
CCOC(=O)C1CCN(C(=O)C(C(=O)c2ccccc2)n2ccccc2=O)CC1 (stereo not given)	-0.18	1.9
CCOc1ccc(N2CC(O)(c3ccccc3)[N+]3=C2SCCC3)cc1 (stereo not given)	0.4	.
O=C(N/N=C/c1ccccc1Cl)C1C(c2ccccc2)C(C(=O)N2CCOCC2)C1c1ccccc1 (stereo not given)	-0.35	.
COc1cc(/C=C(/C#N)c2nnc3n2CCCCC3)ccc1O	-0.95	.
CC(C)(C)c1ccc(N=C(C#N)C2=C(O)c3ccccc3C2=O)cc1	-2.1	-0.15
COC(=O)CCCCC1SCC(NC(=O)OC)C1NC(=O)OC (stereo not given)	.	-0.3

Copied from the list:
CCCNC(=O)c1csc2c1CCCCC2 in CapD inh reads -0.43
CSc1c(C#N)c(N)[nH]c(=S)c1C#N in CapD inh reads 0.025
O=C(O)CSCC(=O)Nc1ccc2c(c1)OCCCO2 in AID504770 reads 1.1
O=C(CSc1ccccc1C(=O)O)NC12CC3CC(CC(C3)C1)C2 in CapD inh reads 0.045
COc1cc(/C=C(/C#N)c2nnc3n2CCCCC3)ccc1O in CapD inh reads -0.95

(list continues)
SMILES	CapD inh	AID504770
CCC(Sc1nc2ccncc2[nH]1)C(=O)N(Cc1ccccc1)C(C)C (stereo not given)	-0.15	0.7
CCCC1=C(C(=O)OCC)C(c2cc(OC)ccc2OC)n2c(s/c(=C\c3ccc([N+](=O)[O-])o3)c2=O)=N1 (stereo not given)	0.005	.
N#C/C(=C(/O)Cn1cc(S(=O)(=O)N2CCCC2)ccc1=O)c1nc2ccccc2[nH]1	.	-0.15
CC1(C)CC(NC(=S)Nc2ccc(S(=O)(=O)N3CCOCC3)cc2)CC(C)(C)N1	.	-0.1
CN1CCc2nc(NC3=NCCCCC3)sc2C1	.	-0.55
N#Cc1ccsc1NC(=O)CCSc1ccccc1	-0.7	-0.65
CC(NC(=O)C1CCCN(C(=O)N(C)C)C1)c1ccccc1 (stereo not given)	0.09	0.2
CN(C)c1nc(OCC(=O)NC(C)(C)C)nc(N(C)C)n1	0.72	0.6
CCCCNC(=O)C1c2cc(OC)c(OC)cc2C(=O)N(C)C1c1ccc(OC)cc1 (stereo not given)	0.38	-0.5
Cc1ccc2oc(=O)n(CC(=O)OCCC(C)C)c2c1	-0.27	0.45
COc1ccc(COC(=O)C2=C(C)NC(=O)NC2c2ccc(OC)c(OC)c2)cc1 (stereo not given)	-0.38	.
COc1cnc(SCc2ccc(Cl)cc2)nc1Oc1ccccc1	-0.21	.
O=C(CSc1nc2ccccc2c(=O)n1CC1CCC(C(=O)NCc2ccco2)CC1)NCCc1ccccc1 (stereo not given)	-0.8	.
Cc1cccc(NC(=O)NCCN2CCOCC2)c1	-0.91	0.5
Cc1nc2ccc(C(=O)NCc3ccccc3CN3CCCC3)cc2nc1C	.	0.25
COc1ccc(C(O)CCC(=O)O)cc1 (stereo not given)	.	-0.85
O=C(NCC1CCCO1)C1CCCN1C(=O)Nc1ccc(Cl)cc1 (stereo not given)	.	0.25
COc1ccc(CCNC(=O)CSc2nc3n[nH]c(C)c3c(=N)n2-c2ccc(Cl)c(C)c2)cc1OC	-0.005	.

Screening data as filed in PubChem.

An excerpt; rates above refer to the full screens.
